Screens (PubChem)
Bead autofluor: counter-screen for toxin protease inhibitors: compound fluorescence. compound autofluorescence counterscreen, microsphere flow cytometry; active compounds read high. fluorescence intensity (concentration not given with the values). 3.1% of 360,000 active;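 active = at least 3 SD above the mean of all compounds, about 16000 in these data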;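 note: 100 nL of 1 mM stock went into each well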
Starred values were filed as active, the others as inactive.

SMILES | Bead autofluor
O=C(NCc1ccc(F)cc1F)[C@@H]1CCCN1C(=O)[C@@H]1CCCN1C(=O)c1cccc(Cl)c1 | 6338
CCCCC(O)C1=C[N+](=O)CC=C1 (configuration not stated) | 4268
C[C@H](CO)N1C[C@H](C)[C@@H](CN(C)C(=O)Oc2ccccc2)OCc2cnnn2CCCC1=O | 3748
CC1Cc2nc(SCC(=O)N3CCCCC3)n(C)c(=O)c2S1 (configuration not stated) | 3280
C[C@@H]1CN([C@@H](C)CO)C(=O)CCCn2nncc2CO[C@H]1CN(C)S(=O)(=O)c1ccc(F)cc1 | 3697
CCC(=O)N1CCCC(C)(C(=O)Nc2ccc3scnc3c2)C1 (configuration not stated) | 3459
Cc1c(C(=O)NCc2cccc(C(F)(F)F)c2)sc(=O)n1Cc1ccc(F)cc1 | 5710
CCOC(=O)C1(C)CCCN(C(=O)c2cc(C)on2)C1 (configuration not stated) | 2902
CCN(Cc1ccccc1)c1cc2c(c3c1ccn3C)C1CCC2O1 (configuration not stated) | 4389
CCCCCCCCN1C(=O)[C@H](CC(=O)NCc2ccc(OC)c(OC)c2)C[C@@]2(C(=O)OCC)CCCC=C12 | 6088
Cc1noc(C)c1-c1ccc(C(=O)Nc2cccc(NS(C)(=O)=O)c2)c2occc12 | 3729
CCN(c1ccccc1)S(=O)(=O)c1cccc(C(=O)NCC(c2ccc(OC)cc2)N2CCCCC2)c1 (configuration not stated) | 5789
CCOc1ccc(-c2nc(CSCC(=O)NC3CCN(Cc4ccccc4)CC3)c(C)o2)cc1 | 4216
COCCCN1C(=O)C(CC(=O)NCCc2ccccn2)CC(C(=O)N(C(C)C)C(C)C)=C1C (configuration not stated) | 4368
CC(C)(C)OC(=O)N1C(=O)[C@](OC(=O)c2ccccc2)(c2ccccc2)c2cccc(F)c21 | 5879
COCOc1cccc(CN2CCC2(C)C(=O)Nc2ccc(C)cc2)c1 (configuration not stated) | 2697
Nc1nc2ncccc2cc1C(=O)NC1CCCCC1 | 5751
CCCCOCCCNC(=O)C[C@@H]1C[C@@]2(C(=O)OCC)CCC=C2N(CCC2=CCCCC2)C1=O | 4586
O=C(Nc1cccc(OC(F)(F)F)c1)C1Cc2c(-c3cccc(F)c3)ccnc2O1 (configuration not stated) | 2764
CC(C1SC(=S)NC1=O)C1SC(=S)NC1=O (configuration not stated) | 3782
COc1cc(CNC(=O)c2cc(-c3cc(OC)ccc3Cl)n[nH]2)cc(OC)c1 | 3050
CC(=O)c1ccc(-c2cnc3c(NC=O)cc(-c4ccc(C(=O)NC5CC5)cc4)cn23)cc1 | 3352
O=C(O)CC(c1ccccc1)c1ccc2c(c1)OCO2 (configuration not stated) | 3827
CC1=CC(C)C(=O)N(CCN2CCOCC2)C(C)=C1 (configuration not stated) | 3655
COCCNC(=S)N(C)[C@H]1C[C@H]2c3cc(Oc4ccccc4C)ccc3CCN2C(=O)[C@H]1[C@H](C)O | 3630
Cc1ccc(S(=O)(=O)N2C[C@H]3[C@H]4C(=O)N(c5ccccc5)C(=O)[C@H]4CC(=O)[C@H]3[C@@H]2c2ccccc2F)cc1 | 5895
O=C(/C=C/[C@H]1O[C@@H](n2ccc(=O)[nH]c2=O)[C@H](O)[C@@H]1O)NCc1cccs1 | 6360
CCC(C)C(CO)NCCCn1cnc2c(SC)ncnc21 (configuration not stated) | 3696
CC1(C(=O)NS(=O)(=O)c2ccc(Cl)cc2)CCN1C(=O)c1ccco1 (configuration not stated) | 3877
O=C1NCN(c2ccccc2)C12CCN(C(c1ccnc3ccccc13)c1nnnn1-c1ccc3c(c1)OCCO3)CC2 (configuration not stated) | 7075
COc1ccc(NC(=O)C2c3ccccc3OCC(=O)N2Cc2ccc3c(c2)OCO3)cc1 (configuration not stated) | 5536
Cc1nc2ccc(C(=O)N(C)Cc3ccco3)cn2c1N(C)C(=O)CCc1ccccc1 | 3882
Nc1ccc(N2N=C(N3CCCC3)CC2=O)cc1 | 3287
CC(C)C[C@H]1CN(CCCC[C@H]2CNC(=O)C(=O)N2CC2CCCCC2)C(=O)C(=O)N1CCC1CCCCC1 | 5141
CC(C)NC(=O)CN1CCN(C(c2ccnc3ccccc23)c2nnnn2-c2ccc3c(c2)OCCO3)CC1 (configuration not stated) | 5978
CCCCn1nnnc1C1(C)CCC(=O)N1CCc1ccccc1F (configuration not stated) | 4517
COCc1cccc(-c2csc(C(NC(C)=O)c3ccc(F)c(F)c3)n2)c1 (configuration not stated) | 3521
O=CNc1cc(-c2ccoc2)cn2c(-c3ccc(F)cc3)cnc12 | 4478
COc1ccc(S(=O)(=O)N2CCCCC2c2cc(C(=O)Nc3ccccc3)no2)cc1 (configuration not stated) | 3118
CCC(c1nnnn1-c1ccc(OC)cc1)N1CCC(n2c(=O)[nH]c3ccccc32)CC1 (configuration not stated) | 6118
CN(Cc1ccccc1)C(=O)c1[nH]cnc1C(=O)Nc1ccc(Br)cc1F | 3198
O=c1[nH][nH]c2c1C(C1CCCCC1)OC(C1CCCCC1)C2 (configuration not stated) | 6274
Cn1ccc2c(-c3cccc(C=O)c3)cc3c(c21)C1CCC3C1 (configuration not stated) | 4170
CCCN1CCC(C)(C(=O)Nc2cccc(OC(C)C)c2)C1 (configuration not stated) | 4680
CC(C)(C)OC(=O)N1CCN(C(c2ccnc3ccccc23)c2nnnn2-c2ccc3c(c2)OCCO3)CC1 (configuration not stated) | 4371
Cc1ccc(CN2CCC(C)(Oc3cccc(Cl)c3)C2)cc1 (configuration not stated) | 4165
COc1cccc(OCC(=O)NCCS(=O)(=O)N2CCN(c3ccccc3)CC2)c1 | 3600
CC=CCn1c(SCc2ccccc2)nc2c1c(=O)[nH]c(=O)n2C | 3567
C=CCNC(=O)CN1C(=O)CSc2ccc(S(=O)(=O)N3CCOCC3)cc21 | 3521
CCc1nc2ccc(C(=O)NCCCn3ccnc3)cn2c1N(CC)C(=O)NCCc1ccccc1 | 3479
CCOC(=O)C1=CC[C@@H](c2ccccc2)N(S(=O)(=O)c2ccc(C)cc2)[C@H]1c1ccc(C#N)cc1 | 5757
Cc1cc2c(cc1C)N1C(=O)c3cc4ccccc4cc3NC(=O)C1C(=O)N2 (configuration not stated) | 5846
O=C1NC(Cc2ccc(O)cc2)c2nc3cc(Cl)ccc3c(=O)n2-c2ncccc21 (configuration not stated) | 3624
COc1cccc(C(C)(O)c2nc(-c3ccc(OC)c(OC)c3)cs2)c1 (configuration not stated) | 3592
C[C@@H]1CN([C@H](C)CO)C(=O)CCCn2nncc2CO[C@@H]1CN(C)C(=O)c1ccc(N2CCN(C)CC2)cc1 | 4522
CCN(CC)C(=O)c1cccc(-c2csc(C(C)(O)c3ccncc3)n2)c1 (configuration not stated) | 3591
CCC(=O)N1CCC(C)(C(=O)NCc2cccc(OC)c2)C1 (configuration not stated) | 3337
COc1ccccc1CNc1nc(NCc2ccccc2SC)c2sccc2n1 | 3936
CC(C)Nc1nc(Nc2ccc(C(N)=O)cc2)c2sccc2n1 | 3549
Cc1cc(NC(=O)COc2ccc3c(C)c(C)c(=O)oc3c2)no1 | 3470

Later entries:
SMILES | Bead autofluor
COc1ccc(CNC[C@H]2O[C@@H](n3ccc(=O)[nH]c3=O)[C@H](O)[C@@H]2O)cc1 | 6058
CC(C)Nc1nc(NCCN2CCCC2)c2sc(-c3ccccc3)cc2n1 | 3702
COc1ccc(NC(=O)CN(C)C(=O)c2ccc(S(=O)(=O)N3CCOCC3)cc2)cc1 | 4096
Cc1nc(C(=O)O)cc([N+](=O)[O-])c1C | 2941
OC[C@@H]1CN(Cc2ccc(-c3ccccc3)cc2)C[C@H](n2cnc3c(NCc4ccncc4)ncnc32)O1 | 3664
CC1=C(C(=O)N2CCCCCC2)CC(CC(=O)NCCN2CCOCC2)C(=O)N1Cc1ccccc1 (configuration not stated) | 5696
O=C(NCc1cccc(C(F)(F)F)c1)c1[nH]c(C(F)(F)F)nc1-c1ccccc1 | 4326
CC1(C(=O)Nc2ccc3c(c2)OCO3)CCN1C(=O)CC1CC1 (configuration not stated) | 3910
O=C(OCC(=O)N1CCOCC1)c1cncc(Br)c1 | 4174
Cc1ccc2oc(NC3=NC4(CCCC4)C4=C(CCCC4=O)N3)nc2c1 | 3914
CC1CC(=O)Nc2ccccc2N1C(=O)COc1ccccc1C(N)=O (configuration not stated) | 3731
COc1ccc(OCCN2CCC(C(=O)NC(c3ccc(OC)cc3)c3ccccn3)CC2)cc1 (configuration not stated) | 3201
CCOC(=O)C1=CCN(S(=O)(=O)c2ccc(F)cc2)C1c1cccc(F)c1 (configuration not stated) | 3963
C[C@@H]1CN([C@H](C)CO)C(=O)CCCn2cc(nn2)CO[C@H]1CN(C)C(=O)Nc1ccccc1F | 3957
COc1ccccc1Cc1c(-c2ccco2)nc2ccc(Cl)cn12 | 6518
COC1=Nc2ccccc2N2CCN=C12 | 4199
CCOC(=O)[C@]12CCCC=C1N(Cc1ccc(Cl)cc1Cl)C(=O)[C@H](CC(=O)NCc1cccc(C(F)(F)F)c1)C2 | 6153
COc1ccccc1C(=O)Nc1ccnn1C1CCN(C2CCCCC2)CC1 | 5277
CC(C)Oc1ccc(S(=O)(=O)N2CCOCC2)cc1NC(=O)c1ccc(Cl)c(S(=O)(=O)N2CCOCC2)c1 | 3699
CCCCCCCCN1C(=O)[C@H](CC(=O)N2CCN(C(=O)C3CC3)CC2)C[C@@]2(C(=O)OC)CCCCC=C12 | 5113
CCCCN1C(=O)C(CC(=O)NCCCCc2ccccc2)CC(C(=O)N2CCCCCC2)=C1C (configuration not stated) | 5883
CCOC(=O)C1(C#N)C(=O)CSC1=Nc1ccccc1Cl (configuration not stated) | 3921
CCCc1ccc(C(O)c2ncc(-c3cccc(C)c3)[nH]2)cc1 (configuration not stated) | 3443
Cc1ccc(NC(=O)NC(=O)COC(=O)c2ccc(O)cc2O)c(C)c1 | 3971
Clc1ccc2nc3ccccc3cc2c1 | 3309
COc1cc(CNC(=O)c2cc(-c3ccc(OC)cc3C)n[nH]2)cc(OC)c1 | 3451
COc1ccccc1CNC(=O)C1(C)CCN1Cc1ccc(OC(F)(F)F)cc1 (configuration not stated) | 3422
CCOC(=O)[C@]12Cc3ccccc3[C@H]1N(CCC(=O)OC)C(=O)c1ccccc12 | 4497
CCOC(=O)C1=CCN(S(=O)(=O)c2ccc(Cl)cc2)C1c1cccc(C)c1 (configuration not stated) | 5876
C=Cc1ccc(Cn2c(C)c(C(=O)NCc3ccc4c(c3)OCO4)sc2=O)cc1 | 4165
COc1ccc(C(=O)COC(=O)c2cc(=O)c3ccccc3o2)c(OC)c1 | 3238
CCCCn1nnnc1C1(C)CCC(=O)N1Cc1ccc(F)cc1 (configuration not stated) | 4620
Cc1ccc(Cc2c(-c3ccc(C)cc3)nc3c4ccccc4ccn23)cc1 | 4299
CC1(C(=O)O)CCCN(C(=O)C2(c3ccc(Cl)cc3)CCCC2)C1 (configuration not stated) | 2848
CCOC(=O)c1c[nH]n2c(=S)ncnc12 | 3571
CC(C)(C)C1CCC(=O)N2CCC[C@]2(c2ccccc2)C1 (some centres not stated) | 5900
CN(C)c1ccc(CC(=O)N2CCCC(c3cc(C(=O)Nc4ccc(F)c(Cl)c4)no3)C2)cc1 (configuration not stated) | 3545
CCC1NC(=O)c2cc3ccccc3cc2-n2c1nc1ccc(F)cc1c2=O (configuration not stated) | 3466
CCN(CC)S(=O)(=O)c1ccc(SCC(=O)c2c(N)n(C3CC3)c(=O)[nH]c2=O)nc1 | 3601
COc1ccc(C(=O)OCC2CN2c2cccc([N+](=O)[O-])c2)cc1 (configuration not stated) | 5682
C[C@H](CO)N1C[C@H](C)[C@@H](CN(C)S(=O)(=O)c2ccc(Oc3ccccc3)cc2)OCc2cnnn2CCCC1=O | 3071
O=C1CNc2cc(Cl)ccc2N1 | 3893
CCOC(=O)CCCN(c1[nH]c(C)c(C)c1C#N)S(=O)(=O)c1ccc(C)cc1 | 3789
CC(=O)Oc1ccccc1Cn1c(C)c(C(=O)N(C)Cc2ccc(F)cc2)sc1=O | 5526
CC(C)NC(=O)C1(C)CCN1Cc1ccc(Cl)cc1 (configuration not stated) | 3883
COc1c(OP2(=S)OCC(C)(C)CO2)cnn(C2CCCCC2)c1=O | 4548
O=S1(=O)C[C@H](N2CCN(CCO)CC2)[C@@H](COCc2ccccc2)N1 | 6173
C[C@H](CO)N1C[C@H](C)[C@@H](CN(C)C(=O)NC2CCCCC2)Oc2ncc(Br)cc2C1=O | 3480
Cc1cccc(C(=O)Nc2ccc(C(=O)c3ccncc3)cc2)c1 | 3494
O=C(NC1CC1)c1[nH]c(C(F)(F)F)nc1-c1ccccc1 | 6464
COCCNc1nc(-c2ccccc2CO)c2sc(-c3ccccc3)cc2n1 | 3463

Among those listed so far, these have an NH in an aromatic ring:
SMILES | Bead autofluor
COc1cc(CNC(=O)c2cc(-c3cc(OC)ccc3Cl)n[nH]2)cc(OC)c1 | 3050
O=C(/C=C/[C@H]1O[C@@H](n2ccc(=O)[nH]c2=O)[C@H](O)[C@@H]1O)NCc1cccs1 | 6360
CCC(c1nnnn1-c1ccc(OC)cc1)N1CCC(n2c(=O)[nH]c3ccccc32)CC1 (configuration not stated) | 6118
CN(Cc1ccccc1)C(=O)c1[nH]cnc1C(=O)Nc1ccc(Br)cc1F | 3198
O=c1[nH][nH]c2c1C(C1CCCCC1)OC(C1CCCCC1)C2 (configuration not stated) | 6274
CC=CCn1c(SCc2ccccc2)nc2c1c(=O)[nH]c(=O)n2C | 3567
COc1ccc(CNC[C@H]2O[C@@H](n3ccc(=O)[nH]c3=O)[C@H](O)[C@@H]2O)cc1 | 6058
O=C(NCc1cccc(C(F)(F)F)c1)c1[nH]c(C(F)(F)F)nc1-c1ccccc1 | 4326
CCCc1ccc(C(O)c2ncc(-c3cccc(C)c3)[nH]2)cc1 (configuration not stated) | 3443
COc1cc(CNC(=O)c2cc(-c3ccc(OC)cc3C)n[nH]2)cc(OC)c1 | 3451
CCOC(=O)c1c[nH]n2c(=S)ncnc12 | 3571
CCN(CC)S(=O)(=O)c1ccc(SCC(=O)c2c(N)n(C3CC3)c(=O)[nH]c2=O)nc1 | 3601
CCOC(=O)CCCN(c1[nH]c(C)c(C)c1C#N)S(=O)(=O)c1ccc(C)cc1 | 3789
O=C(NC1CC1)c1[nH]c(C(F)(F)F)nc1-c1ccccc1 | 6464

Only part of the results is shown; count on the stated rates, not on these rows.
